D2 potentiator – human D2 receptor positive allosteric modulation | P14416 | 0.23% of 360,000 active | DiscoveRx D2 beta-arrestin cells, luminescence, 90 min; 100% = 57 uM dopamine signal | potentiation, % (concentration not given with the values); active = potentiation of 50% or more; inconclusive = 30% to 50%; inactive = 30% or less;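 further: compound concentration not given in the record; tested on top of an EC20 dose of dopamine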
Target sequence (P14416 whole entry, looked up): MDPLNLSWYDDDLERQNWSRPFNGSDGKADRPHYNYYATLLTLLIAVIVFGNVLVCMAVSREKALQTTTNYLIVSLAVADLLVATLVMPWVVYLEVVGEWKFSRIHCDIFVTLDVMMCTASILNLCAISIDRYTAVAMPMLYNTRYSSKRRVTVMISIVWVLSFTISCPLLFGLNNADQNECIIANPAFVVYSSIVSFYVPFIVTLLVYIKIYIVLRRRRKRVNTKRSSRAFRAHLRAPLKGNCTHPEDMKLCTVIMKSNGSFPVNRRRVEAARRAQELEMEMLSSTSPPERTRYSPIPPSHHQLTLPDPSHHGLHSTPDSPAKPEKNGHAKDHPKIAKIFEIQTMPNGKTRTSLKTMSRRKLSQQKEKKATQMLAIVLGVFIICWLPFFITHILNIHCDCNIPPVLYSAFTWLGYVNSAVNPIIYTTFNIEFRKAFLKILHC
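PathHunter beta-arrestin assay in DiscoveRx D2 cells. Compounds were added with an EC20 of dopamine (50 nM final) for 90 min at 37 deg C. Luminescence was read 1 h after detection reagent, with 57 uM dopamine as the EC100 control.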
CtBP-E1A blk – CtBP/E1A binding inhibition; AID 651724; activity change, % (no concentration beside the values); AlphaScreen GST-E1A/His-CtBP binding, 1536-well; hits give low values; control for the full effect not named in the record; 0.49% of 340,000 active; in the data active means activity change below about -65%; inconclusive means about -30% to -65%; inactive means above about -30%; further: on the % scale 0 is the no-effect control and ±100 the full control effect; compound concentration not given in the record
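Protein mix (5X: 125 nM each GST-E1A, His-CtBP) was incubated with pinned compound 2 h at 37 deg C in dark, in 50 mM Tris pH 8.0 buffer with 300 mM NaCl. Glutathione donor and nickel acceptor beads followed; AlphaScreen signal read after 1 h.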
TRPML1 ag – agonists of human TRPML1 channel | Q9GZU1 | TRPML1-expressing cells, Ca2+ dye fluorescence, FDSS; host cell line not named in the record; reference of the full effect not given here | activation, % (concentration not given with the values) | 0.12% of 410,000 active | AID 624414; in the data active = activation above about 50%; inconclusive = about 30% to 50%; inactive = below about 30%; further: 0% is about no effect; the text of the record puts the active cut at 80%
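Agonist activity was taken from a 110 s kinetic Ca2+ dye read on the FDSS after pinning compounds onto TRPML1-DL cells. The cells were seeded at 1,500/well with Tet inducer, incubated about 16 h, then dye-loaded at room temperature.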
Six1-Eya2 inh – inhibitors of human Six1/Eya2 interaction | AlphaScreen GST-Six1/His-Eya2 binding, biochemical; hits give low values; control for the full effect not named in the record | activity change, % (no concentration beside the values) | 0.56% of 360,000 active | AID 651725; in the data active = activity change below about -65%; inconclusive = about -30% to -65%; inactive = above about -30%; further: on the % scale 0 is the no-effect control and ±100 the full control effect; compound concentration not given in the record
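AlphaScreen with GST-Six1 and His-Eya2 (5X mix: 250 nM and 500 nM), glutathione donor and nickel acceptor beads; buffer 50 mM Tris pH 8.0, 300 mM NaCl, 1 mM TCEP; 1 h at 37 C in the dark.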
TRPML1 inh – inhibitors of human TRPML1 channel; Q9GZU1; TRPML1-inducible cells, Ca2+ dye fluorescence, FDSS; hits give low values; inhibition of EC80 agonist-evoked calcium signal; activity change, negative = inhibition, % (no concentration beside the values); 0.02% of 390,000 active; in the data active means activity change below about -50%; inconclusive means about -30% to -50%; inactive means above about -30%;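 further: stimulus is agonist 54-4 at its EC80 concentration; on the % scale 0 is the no-effect control and ±100 the full control effect; compound concentration not given in the record; the text of the record puts the active cut at -80%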
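Calcium fluorescence in TRPML1-DL cells induced overnight with Tet: a 110 s read after compound pin addition, then a 110 s antagonist read after challenge with 54-4 at 4 uM final (EC80).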
TRPV1 potentiator – enhances activation of the human vanilloid receptor TRPV1 | Q8NER1 | TRPV1-expressing cells, Fluo-8 calcium influx, capsaicin EC20 potentiation; host cell line not named in the record; control for the full effect not named in the record | potentiation, % at 8.33 µM | 0.02% of 320,000 active | AID 540277; active means potentiation above 80%; inconclusive means 30% to 80%; inactive means below 30%; further: 0% is about no effect
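TRPV1-expressing cells were cultured overnight at 35.5C and loaded with Fluo-8 calcium dye for 40 to 90 min at room temperature. After a 10 s baseline, compound was added and calcium influx was read kinetically for 3 min (ex 480/em 520 nm).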
Active calls of the source: *; u = inconclusive; x = not tested or not shown.

cpd	SMILES	Six1-Eya2 inh	TRPV1 potentiator	TRPML1 ag	TRPML1 inh	CtBP-E1A blk	D2 potentiator
1	COc1ccc(C(C)=O)cc1COC(=O)c1ccc(S(=O)(=O)N(C)C)cc1	5	-11	1.6	6	x	-5
2	O=C(CSc1ncn[nH]1)NC12CC3CC(CC(C3)C1)C2	-1	1	-0.5	-7	6	-16
3	Cc1ccc(Nc2nnc(SCC(=O)Nc3cccc(S(=O)(=O)N4CCCCC4)c3)s2)cc1	-13	-6	4.5	6	-6	1
4	CC(=O)Nc1c(Cl)c(Cl)c2c(c1Cl)C(=O)c1cc(Cl)ccc1-2	-2	x	-0.3	-13	1	-6
5	COc1ccc(CNC(=O)CN(C(=O)c2csnn2)c2ccc3c(c2)OCCO3)cc1	6	6	2.1	39	4	0
6	O=C(CN1c2ccccc2Sc2ccccc21)NNC(=S)Nc1ccc(Cl)cc1Cl	-13	13	-0.7	-5	-2	-22
7	Cc1nc(SCC(=O)N(C)C2(C#N)CCCCC2)c2ccccc2n1	-6	-9	-0.3	3	5	-4
8	COC(=O)N/N=C/c1c(C)c(C(=O)c2ccc(F)cc2)n2ccccc12	-29	-18	3.0	12	-28	-18
9	O=C(Nc1ccc(Br)cc1F)c1ccc2nsnc2c1	5	-12	0.1	-6	-9	-12
10	Cc1ccc(OC(=O)CCC(=O)Nc2ccc(C(N)=O)cc2)cc1	5	x	0.1	-7	-1	-12
11	COc1cccc(N2CCc3c(C)nc4ccc(Cl)cc4c32)c1	28	20	-1.5	9	37	-17
12	COc1cccc(CNC(=O)C(=O)NCC2CCCO2)c1 (configuration not stated)	6	6	-0.3	13	3	-20
13	CC(=O)Nc1cccc(-c2nnc(SCC(=O)N3CCCCC3)n2C)c1	7	14	-0.8	20	6	-9
14	Cc1nn(C)c(Oc2ccccc2)c1CCNS(=O)(=O)c1ccc(Cl)cc1	3	5	-0.1	11	2	4
15	CS(=O)Cc1cc(Sc2ccccc2)nc(-c2cccnc2)n1 (configuration not stated)	5	-18	-0.2	10	4	-4
16	O=C(Nc1cccc(O)c1)c1cc2nc(-c3ccccc3)cc(-c3ccccc3)n2n1	-27	-6	1.4	1	-17	21
17	C/C(CC(=O)Nc1ccccn1)=N\NC(=O)C(=O)Nc1ccccc1C	3	u	-0.6	0	-3	6
18	O=C(NCc1ccc(F)cc1)C1CCN(c2cnccn2)CC1	4	-10	0.1	4	1	4
19	CC(C)c1cc(C(N)=O)c(NC(=O)c2cccc(COc3ccc(Br)cc3)c2)s1	-1	-4	1.2	-12	5	-7
20	Cc1onc(-c2c(F)cccc2Cl)c1C(=O)ONC(=O)c1ccccc1	-4	6	-0.8	-7	4	-4
21	COc1ccc2c(Cl)c(C(N)=O)sc2c1	-11	-2	0.8	-9	-2	5
22	O=C(Cc1ccccc1)Nc1ccnn1C1CCN(Cc2ccc(CO)o2)CC1	-8	1	0.7	-4	1	10
23	CCOC(=O)c1c(C)[nH]c(C)c1-c1ccccc1OC	-2	u	0.3	-15	-4	-12
24	COc1cccc(C(=O)C2CCCN(Cc3ccc(OC)c(Cn4cncn4)c3)C2)c1 (configuration not stated)	-8	5	0.8	-7	0	-9
25	COc1ccc(-c2csc(NC(=O)CN3C(=O)C4CCCCC4C3=O)n2)c(OC)c1 (configuration not stated)	6	-9	1.2	-6	-23	-5
26	COC(=O)c1c(NC(=O)CSc2nnc3ccccn23)sc2c1CCC2	-7	4	0.7	53	-4	-5
27	COc1ccc(NC(=O)[C@H](CCS(C)(=O)=O)N2Cc3ccccc3C2=O)c(OC)c1	7	10	-0.2	-12	1	-2
28	C[C@@H]1C(c2ccc(F)cc2)=NN(c2ccc(Br)cc2)[C@H]1C(=O)N1CCOC1=O	36	x	-0.3	22	35	x
29	O=c1[nH]cc(S(=O)(=O)N2CCOCC2)c(=O)[nH]1	22	-5	0.8	11	21	-15
30	O=C(CSc1nnc(-c2ccccc2F)n1C1CCCCC1)N1CCCC1	5	-8	0.9	16	-7	-7
31	O=C(c1cn(-c2ccccc2)nc1-c1cccnc1)N1CCCC(C(F)(F)F)C1 (configuration not stated)	0	-11	-0.9	-2	-1	16
32	COc1ccc(Cn2c(=O)[nH]c3cc(C(=O)NCCCN4CCCCC4)ccc3c2=O)cc1	-1	6	1.8	-2	-1	-36
33	COc1ccc(-c2nn(-c3ccccc3)cc2C(=O)Nc2cccc(S(=O)(=O)NC3=NCCC3)c2)cc1	-10	x	1.2	18	-16	4
34	COc1ccc(CCNC(=O)CN2C(=O)NC3(CCc4ccccc43)C2=O)cc1 (configuration not stated)	-3	7	-0.3	-9	x	0
35	CC(=O)Nc1ccc(S(=O)(=O)Oc2ccc(C=O)cc2)cc1	19	-9	-0.2	-1	-6	6
36	COc1ccccc1CCNC(=O)CCCn1nc(C)c2c(C)n(-c3ccc(C)cc3)nc2c1=O	-3	u	2.1	6	x	-6
37	COCCNC(=O)CN1C(=O)NC2(CCCc3cc(OC)ccc32)C1=O (configuration not stated)	3	19	-0.1	1	1	-1
38	CC1(CCc2ccccc2)NC(=S)N(c2ccc(Cl)cc2)N1 (configuration not stated)	7	6	1.3	22	3	-24
39	Cn1c(=O)c2[nH]c(SCC(=O)c3ccc(F)cc3)nc2n(C)c1=O	-3	1	-0.3	-3	1	0
40	NC(=O)NOCc1ccccc1	5	-2	0.5	25	0	-7
41	Cc1nc(NC(=O)CCl)sc1C(=O)N(C)C	3	-2	1.0	-19	x	-1
42	CCOC(=O)[C@@H](NC(=O)/C=C/[C@H]1O[C@@H](n2ccc(=O)[nH]c2=O)[C@H](O)[C@@H]1O)C(C)C	1	x	1.5	-11	9	-3
43	O=C(O)c1ccc(C2Nc3ccccc3C(=O)N2Cc2ccccc2)cc1 (configuration not stated)	17	-2	0.2	37	-6	-6
44	CCc1ccccc1Oc1ccc(S(=O)(=O)N2CCN(C)CC2)cn1	4	11	0.7	-2	5	-9
45	COc1ccc(NC(=O)NCCCN2CCN(c3ccccc3F)CC2)cc1	0	-14	0.0	-12	0	-4
46	NC(=O)N/N=C/c1ccc2cccc(OCc3ccccc3)c2n1	-7	8	-0.2	-8	0	1
47	C/C(=N\NC(N)=S)C1C2C3CC4C5CC(C42)C1C53 (configuration not stated)	-10	0	-0.8	-5	4	1
48	COc1cc2c(cc1OC)CN(S(=O)(=O)/C=C/c1ccccc1)CC2	-2	-21	-1.2	-2	0	-2
49	Cc1cccc(C(C)C)c1NC(=O)COC(=O)Cc1ccsc1	-3	16	-0.2	4	-7	-20
50	Cc1cccc2cc(CN(Cc3nnnn3Cc3ccccc3)C3CCCC3)c(=O)[nH]c12	-8	0	-0.1	3	9	-24

(next part)
cpd	SMILES	Six1-Eya2 inh	TRPV1 potentiator	TRPML1 ag	TRPML1 inh	CtBP-E1A blk	D2 potentiator
51	CCOC(=O)N1CCN(CC(O)COc2ccc(C)c(C)c2)CC1 (configuration not stated)	1	1	1.9	10	3	-7
52	COCCCNC(=S)N/N=C/c1ccc2ccccc2c1	-7	4	2.4	-5	-29	-17
53	CSc1nnc(-c2cc3c(-c4ccccc4)nn(C)c3s2)n1C	-74*	x	-0.7	41	-74*	-14
54	Cc1cc(C)c(C(=O)COC(=O)[C@H](C)Nc2ccc(C(F)(F)F)cc2[N+](=O)[O-])c(C)c1	21	6	0.3	-7	0	-17
55	COc1cccc(NC(=O)CSc2nnc(Cc3ccc(C)cc3)c(=O)n2N)c1	-10	-3	0.0	8	-9	-7
56	COc1cccc(/C=C2\N=C(c3c(-c4ccccc4)noc3C)OC2=O)c1OC	3	-3	-0.7	22	4	-5
57	CC(C)COc1ccc(C(=O)Nc2scc(-c3ccc(Cl)cc3Cl)c2C(N)=O)cc1	1	-29	-0.3	1	5	-22
58	CCN(C[C@H]1N[C@@](C)(C(=O)OC)[C@H]2C(=O)N(C)C(=O)[C@@H]12)C(=O)Nc1ccccc1	0	x	-0.6	-14	-1	-3
59	Cn1ccc2c(-c3cncc4ccccc34)cc3c(c21)C1CCC3O1 (configuration not stated)	4	x	2.2	x	-19	-7
60	CCOc1cccc(C(=O)Nc2cccc(NC(=O)c3ccco3)c2)c1	-8	-5	0.5	37	1	-20
61	C=CCn1c(SCc2cc(=O)n3cc(C)ccc3n2)nnc1-c1cccc(C)c1	1	0	-0.7	-10	7	1
62	O=C(N/C(=C/c1ccco1)C(=O)N1CCOCC1)c1ccccc1Br	-8	15	0.9	-3	-4	-4
63	Cc1ccc(S(=O)(=O)N2C(=O)CCC2C(=O)N2CCN(C)CC2)cc1 (configuration not stated)	2	5	-0.6	6	0	-11
64	COc1ccccc1Cn1cccc1C=O	15	-11	1.4	17	-15	-13
65	Oc1ccccc1CNc1ccc(OC(F)(F)F)cc1	4	-8	0.5	-8	x	-3
66	COc1ccc(-c2ccccc2)cc1NC(=O)C1(C)CCN1C(=O)C(C)C (configuration not stated)	2	x	-0.9	x	-10	-2
67	COC(=O)C(C(=O)OC)c1ncccc1[N+](=O)[O-]	2	4	-0.2	16	-4	-1
68	CN(C)CCNc1oc(/C=C/c2ccccc2)nc1C#N	0	-4	2.3	41	2	-30

Screening results deposited in PubChem by National Center for Advancing Translational Sciences (NCATS).
